Screens: PubChem, several laboratories
Vif A3G – HIV-1 Vif–A3G interaction blockers – biochemical, TR-FRET, GST-Vif 1-94, biotin-A3G peptide, dose response retest, primary screen (AID 1117319); TR-FRET GST-Vif / biotin-A3G peptide binding; higher % means a stronger effect; test concentration not given here; strong numbers were not always called active; inhibition, %, or IC50 in µM where a hit was titrated; 260,000 compounds, 0.57% hits;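 active means above the screen mean plus three standard deviations and confirmed in dose response; inconclusive means results disagree or hit not tested in dose response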;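 further: Vif residues 1-94 fused to GST binding biotinylated APOBEC3G peptide 110-148; 0% = full assay without inhibitor and 100% = GST in place of GST-Vif; retest series ran down from 100 µM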
AF4-AF9 inh – blocks AF4 peptide binding to human AF9 | P42568 | 350,000 compounds, 0.47% hits | AlphaScreen, biotin-AF4 peptide binding to FLAG-AF9 | inhibition, % at 10 µM | AID 651704;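 active means every replicate reaching a set inhibition limit, whatever the replicate mean, cut at about 25% in these data; inconclusive means mean inhibition reaches that limit but some replicates miss it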;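 further: 0% = plate neutral control median and 100% = total signal loss; the record names both 10 and 1 µM as test concentration; the first replicate is given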
Target sequence (P42568 whole entry, looked up): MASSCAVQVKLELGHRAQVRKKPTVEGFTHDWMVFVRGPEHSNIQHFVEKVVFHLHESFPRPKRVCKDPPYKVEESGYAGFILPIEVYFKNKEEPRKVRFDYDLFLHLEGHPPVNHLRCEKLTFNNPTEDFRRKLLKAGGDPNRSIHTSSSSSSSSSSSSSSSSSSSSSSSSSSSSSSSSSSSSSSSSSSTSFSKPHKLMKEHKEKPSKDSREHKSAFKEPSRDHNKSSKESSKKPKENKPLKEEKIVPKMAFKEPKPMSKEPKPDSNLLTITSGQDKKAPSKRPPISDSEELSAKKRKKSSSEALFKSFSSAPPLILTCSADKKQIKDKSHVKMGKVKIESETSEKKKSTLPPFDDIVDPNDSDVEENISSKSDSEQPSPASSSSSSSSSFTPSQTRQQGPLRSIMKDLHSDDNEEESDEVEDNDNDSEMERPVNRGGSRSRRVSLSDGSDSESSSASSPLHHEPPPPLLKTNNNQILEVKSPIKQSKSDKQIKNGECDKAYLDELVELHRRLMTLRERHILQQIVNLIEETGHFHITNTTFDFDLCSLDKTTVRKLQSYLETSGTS
RanGTP-Impb inh – disruptors of Ran-importin-beta complex formation – biochemical, FRET, CFP-Ran, YFP-importin-beta, homogeneous, primary screen; inhibition, % (no concentration beside the values); 300,000 compounds, 1.1% hits; cell-free CFP-Ran/YFP-importin-beta FRET ratio;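 active means most replicates above 15%; inconclusive means exactly half above 15%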;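 further: 0% = DMSO wells and 100% = Ran loaded with GDP instead of GTP; wells of about 40 µL received 100 nL stock; the first replicate is given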
FGF22 binding – shifts melting point of recombinant human FGF22; AID 651658; Q9HCT0; recombinant FGF22 thermal shift, SYPRO orange fluorescence; percent of sucrose octasulfate shift, DMSO zero; 340,000 compounds, 1.5% hits; calls only at 9.99 µM;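 active means melting point raised past a set limit in the mean and every replicate; inconclusive means no clear call; three in four hits are not shown here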
Target sequence (Q9HCT0 whole entry, looked up): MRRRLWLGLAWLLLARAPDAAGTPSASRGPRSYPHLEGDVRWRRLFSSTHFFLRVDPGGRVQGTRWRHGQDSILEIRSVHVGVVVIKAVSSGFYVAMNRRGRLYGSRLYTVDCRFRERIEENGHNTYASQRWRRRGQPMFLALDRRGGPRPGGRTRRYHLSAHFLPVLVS
E coli growth – E. coli growth inhibition; AID 1053175; OD600 absorbance (no concentration beside the values); Escherichia coli growth, OD600, 23 h; hits give low values; 330,000 compounds, 0.21% hits;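 active means OD600 absorbance below the run mean of sample wells minus 3.6 SD, in any replicate, cut at about 0.56 in these data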;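 further: stock transfer was 300 nL into about 60 µL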
UCH37 inh – inhibitors of human deubiquitinating enzyme UCH37; purified proteasome/UCH37, Ub-AMC cleavage fluorescence; AID 588478; 330,000 compounds, 0.33% hits; inhibition, % (test concentration not listed);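 active means mean of two replicates above 20%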;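 further: 0% = compound-free wells with enzyme and 100% = wells lacking proteasome; stock transfer was 100 nL into about 20 µL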
Target sequence (Q9Y5K5 whole entry, looked up): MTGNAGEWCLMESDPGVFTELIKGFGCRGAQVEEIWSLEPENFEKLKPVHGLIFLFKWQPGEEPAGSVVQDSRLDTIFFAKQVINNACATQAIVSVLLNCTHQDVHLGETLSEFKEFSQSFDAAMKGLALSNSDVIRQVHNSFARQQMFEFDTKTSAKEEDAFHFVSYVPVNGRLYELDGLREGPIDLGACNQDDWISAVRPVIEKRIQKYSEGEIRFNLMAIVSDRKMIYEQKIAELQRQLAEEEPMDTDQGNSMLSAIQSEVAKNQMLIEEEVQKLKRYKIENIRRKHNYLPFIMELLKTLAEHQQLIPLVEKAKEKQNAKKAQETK
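Material: human UCH37 enzyme supplied as purified proteasome complex / Amount: 0.15 nM proteasome as dispensed / Buffer or medium: pH 7.4 Tris-HCl (50 mM) with ovalbumin, ATP-MgCl2, DTT / Times: preincubation 30 min, reaction 25 min, room temperature / Technique: AMC fluorescence from Ub-AMC cleavage, excitation 355 nm, emission 460 nm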
HNF4A DNA FP – change in binding of human HNF4 alpha to DNA; HNF4a-FITC DNA binding, fluorescence polarization, 1 h; activity change, % at 10 µM; 360,000 compounds, 0.3% hits; in the data active means activity change above about 30%, passing the limit was not always enough;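 further: controls were the assay level and a saturating level of protein; the project sought stronger binding though the title names inhibitors; some compounds called inactive have numbers as strong as hits; positive values seem to mean higher polarization but the record does not say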
* = called active by the depositor; i = inactive; ? = inconclusive; . = no result given; & = joins results of further samples.

SMILES	Vif A3G	AF4-AF9 inh	RanGTP-Impb inh	FGF22 binding	E coli growth	UCH37 inh	HNF4A DNA FP
CS(=O)(=O)c1ccc(C(=O)NCC(c2ccco2)N2CCCCC2)cc1 (stereo not given)	?	2.2	-3.7	i	0.68	0.5	3.7
O=S(=O)(c1cc(F)ccc1F)N1CCC2(CC1)OCCN2S(=O)(=O)c1ccccc1	-1%	-1.3	-0.8	i	0.65	2.4	2.2
COc1ccccc1N(CC(=O)NC1CCCCC1)S(=O)(=O)c1ccccc1	.	-1.8	4.1	i	0.66	0.1	3.6
CCOC(=O)c1ccc(NC(=O)c2nc(S(=O)(=O)Cc3ccccc3)ncc2Cl)cc1	.	-2.6	-0.9	i	.	.	-2.8
CC[C@]12c3[nH]c4ccccc4c3CCN1C(=O)C(CC(=O)NCC13CC4CC(CC(C4)C1)C3)C[C@@H]2C(=O)N1CCN(C(=O)C2CC2)CC1 (stereo not given in full)	0%	4.9	.	i	0.69	-0.6	1.5
CCOC(=O)c1c(C)[nH]c(C(=O)OCC(=O)Nc2sccc2C(N)=O)c1C	-3%	-8.7	2.9	i	0.72	4.1	7.2
O=C(Nc1cccc(Cl)c1)c1nc[nH]c1C(=O)NCCN(CCNC(=O)c1[nH]cnc1C(=O)Nc1cccc(Cl)c1)CCNC(=O)c1[nH]cnc1C(=O)Nc1cccc(Cl)c1	.	-1.8	.	i	0.72	0.5	-0.4
CCCCOC(=O)Nc1ccccc1C(=O)N1CCCC1	-4%	.	0.4	.	0.67	-1.5	-1.1
c1cncc(CNc2ncnc3ccc(-c4ccc5c(c4)OCO5)cc23)c1	.	.	.	i	0.78	-1.4	3.9
COc1ccc(Cn2c(O)c(C=Nc3ccccc3C(=O)O)c3ccccc3c2=O)cc1	14%	-21	5.7	i	0.68	9.4	3.1
CCOC(=O)N1CCN(c2c(N3CCN(c4ccc(OC)cc4)CC3)c(=O)c2=O)CC1	-1%	2.7	-1.9	i	0.69	5.1	3.5
CCOc1ccc(NC(=O)CCC(=O)Oc2ccc(C)cc2)cc1	-4%	-2.7	4.9	i	0.67	4.8	-3.3
NS(=O)(=O)c1ccc(CNC(=O)c2cccc(Oc3ccccc3)c2)cc1	-12%	?	3.0	i	0.7	2.7	-1.2
CCNS(=O)(=O)c1ccc(NC(=O)Cc2ccc(F)cc2)cc1	4%	-48	3.3	i	0.71	4.6	-4.8
CC(=O)NC(CC(=O)O)c1ccc([N+](=O)[O-])cc1 (stereo not given)	-7%	-7.9	1.5	i	0.63	-0.9	-0.8
O=C(O)/C=C/c1ccc2c(c1)OCCO2	-4%	-1.0	-0.2	i	0.67	0.3	0.5
CCOC(=O)C1(CCc2ccccc2)CCN(C(=O)C2CCOCC2)CC1	0%	-0.5	-2.8	i	0.68	0.7	-1.4
CC(C)Oc1ccccc1/C=N/NC(=O)c1ccccc1Cl	6%	7.0	-2.8	i	.	.	-0.4
Cc1ccc2nsnc2c1NC(=O)c1sc2ccccc2c1Cl	-11%	.	6.0	.	0.7	-77	-0.1
CCc1ccc(C(=O)COC(=O)c2cccs2)cc1	26%	.	3.9	.	.	.	-1.4

One compound at a time (already shown). Screens in order: Vif A3G, AF4-AF9 inh, RanGTP-Impb inh, FGF22 binding, E coli growth, UCH37 inh, HNF4A DNA FP
O=C(Nc1cccc(Cl)c1)c1nc[nH]c1C(=O)NCCN(CCNC(=O)c1[nH]cnc1C(=O)Nc1cccc(Cl)c1)CCNC(=O)c1[nH]cnc1C(=O)Nc1cccc(Cl)c1 is entered as ., -1.8, ., i, 0.72, 0.5, -0.4
CCc1ccc(C(=O)COC(=O)c2cccs2)cc1 is entered as 26%, ., 3.9, ., ., ., -1.4
COc1ccccc1N(CC(=O)NC1CCCCC1)S(=O)(=O)c1ccccc1 is entered as ., -1.8, 4.1, i, 0.66, 0.1, 3.6

New compounds follow:
SMILES	Vif A3G	AF4-AF9 inh	RanGTP-Impb inh	FGF22 binding	E coli growth	UCH37 inh	HNF4A DNA FP
COc1cc2c(cc1OC)C(C)N(S(=O)(=O)c1ccc(C)cc1)CC2 (stereo not given)	-8%	1.0	0.0	i	0.68	0.3	4.9
CC1(NC(=O)CCc2ccccc2)CCN(CCCc2ccccc2)C1=O (stereo not given)	.	-1.3	.	i	0.68	0.2	3.1
Fc1cccc(Cl)c1CSc1ccc(-c2cccnc2)nn1	3%	13	-0.8	i	0.7	2.2	1.9
O=C(/C=C/Nc1ccc(F)c(F)c1)c1ccc(Br)cc1	-12%	-4.0	5.5	i	0.73	-13	4.5
Cc1nn(-c2ccccc2)nc1CNC(=O)c1ncoc1-c1ccccc1	.	-1.4	1.4	i	0.63	1.3	1.8
CC[C@@]12C(=O)N(c3cccc(Cl)c3)C(=O)N1[C@H](c1cccc(C)c1)[C@@H]1C(=O)N(Cc3ccccc3)C(=O)[C@@H]12	.	-9.0	-5.2	i	.	3.3	5.8
CCn1c(SCC(=O)O)nc2ccccc21	1%	-0.7	6.3	i	0.68	0.0	-0.5
OC(CN1CCCCC1)Cn1c2ccccc2c2cc(Br)ccc21 (stereo not given)	1%	11	-0.2	i	0.65	7.6	-1.2
COc1cc2c(cc1OC)CN(C(=O)c1ccc(S(=O)(=O)N3CCCCCC3)cc1)CC2	.	.	3.6	.	0.67	0.8	6.1
COc1ccc(Cl)cc1NC(=S)NC(=O)c1ccco1	-6%	-0.1	.	i	0.72	2.8	1.6
Oc1ccccc1C(=S)N1CCN(C(=S)c2ccccc2O)CC1	1%	-1.8	-0.4	i	0.65	-0.7	1.3
CSc1ccccc1C(=O)Nc1ccc2c(c1)OCCO2	-2%	.	-3.9	.	0.7	4.0	1.4
O=C(Nc1nnc(S(=O)(=O)N2CCCC2)s1)c1ccccc1Cl	.	1.7	2.0	i	0.69	7.3	22
COc1ccc(Cl)cc1NC(=S)N1CCCCCC1	.	-0.2	5.8	i	0.68	3.2	-3.9
COC(=O)Cc1cc(=O)n2[nH]c(C)cc2n1	>100µM*	.	-0.5	.	0.73	3.4	0.7
COC(=O)N1C(=O)[C@@](c2ccccc2)(C2CCCC2)N1C(=O)OC	.	.	-4.5	.	0.62	0.2	-0.3
COc1ccc(C(=O)NC(=S)NNC(=O)c2cccnc2)cc1	.	1.7	3.9	i	0.61	8.1	-3.0
O=C1Nc2ccccc2C1=Nc1ccc(F)cc1	.	.	0.5	.	0.68	6.4	-2.3
Oc1ccccc1Nc1nc(NCc2ccccc2)c2ccccc2n1	1%	7.0	-4.9	i	0.55	-0.2	5.2
COc1ccccc1/C=C/C(=O)OC(C)CN1CCOCC1 (stereo not given)	-1%	.	1.3	.	0.67	-69	4.2
O=C(CC(=O)c1cccnc1)c1ccccc1	-6%	7.0	.	i	0.63	8.0	-2.7
CCN(CC)CCN1C(=O)C(=O)/C(=C(/O)c2ccc(C)cc2)C1c1cccnc1 (stereo not given)	?	-11	0.0	i	0.66	2.4	-0.8
Nc1nnnn1/N=C/c1ccc(Br)cc1	.	-7.0	6.3	i	.	.	3.8
O=[N+]([O-])c1ccccc1CSc1ccccn1	-8%	-2.1	1.1	i	0.67	5.1	-1.9
CCN(CC)CCNC(=O)c1cc(-c2cccnc2)nc2ccc(S(=O)(=O)N3CCC(C)CC3)cc12	.	5.7	4.4	i	0.72	6.0	1.7
Cc1cc(C)n(C2CC(=O)N(c3cccc(Cl)c3)C2=O)n1 (stereo not given)	4%	-2.1	4.4	i	0.67	-2.0	4.5
O=C(Cn1nc(-c2ccc(Cl)cc2)ccc1=O)NCCN1CCOCC1	-1%	1.6	-2.8	i	0.7	3.2	4.4
COc1cc(C=CC(=O)c2cc(OC)c(OC)c(OC)c2)cc(OC)c1OC	.	-0.3	.	i	.	.	-0.1
COCCn1nnnc1C(c1ccc(OC)c(OC)c1)N1CCN(c2nc3ccccc3s2)CC1 (stereo not given)	-9%	.	-0.5	.	0.72	-0.2	3.1
CC(CCc1ccccc1)NC(=O)c1ccncc1 (stereo not given)	3%	.	3.0	.	0.71	3.3	-3.1
COc1cccc(CNC(=O)CCC2CCCN(Cc3cc(Cl)ccc3O)C2)c1 (stereo not given)	10%	0.5	-4.9	i	0.68	2.7	-0.9
O=[N+]([O-])c1ccc(-c2nc(-c3cccs3)c(-c3cccs3)[nH]2)cc1	1%	.	-40	.	0.7	6.4	32
CC1(C(=O)NS(=O)(=O)c2ccc3ccccc3c2)CCN1C(=O)Cc1ccc(-c2ccccc2)cc1 (stereo not given)	.	1.7	.	i	.	.	-4.4
COc1ccc(Cl)cc1-n1c(C)ccc1C	4%	.	7.6	.	0.69	1.1	3.5
CC(C)Oc1cccc(-c2cc(C(=O)N3CCN(S(C)(=O)=O)CC3)c3ccccc3n2)c1	-4%&-9%	.	7.4	.	0.79	-2.8	-2.8
CCCCn1c(N)c(N(CCC(C)C)C(=O)COC(=O)c2cccnc2OCC)c(=O)[nH]c1=O	.	0.7	.	i	0.7	0.7	-0.9
O=C1c2sc3nc4n(c(=O)c3c2CCC1Br)CCCCC4 (stereo not given)	0.54µM*	.	?	.	0.69	10	-1.5
CCOC(=O)Cc1cc(=O)[nH]c(/N=C(\N)Nc2ccc(C)c(C)c2)n1	-3%	-4.0	-3.5	i	.	.	-2.7
COc1ccc(OCCSc2ncc(CO)n2C)cc1	3%	-2.0	0.4	i	0.68	3.5	-0.8
O=C(NC1=NCCS1)c1ccccc1	6%	0.5	2.7	i	0.63	5.6	0.1
CCNC(=S)Nc1scc(-c2ccccc2)c1C(=O)OCC	-21%	2.1	-3.7	i	0.69	4.7	-0.6
COc1ccc(S(=O)(=O)NNC(=O)c2csc(-n3nc(C)cc3C(F)(F)F)n2)cc1	9%	.	-1.7	.	0.76	-1.7	-1.5
O=C(CSc1nc(=O)n2ccccc2n1)N1CCCCCC1	1%	0.7	1.6	i	0.71	7.6	4.5
CN1C(=S)SC(N(O)C(=O)Nc2ccccc2)C1(C)C (stereo not given)	-7%	.	-1.5	.	0.72	0.6	1.2
O=C1CN(C(=O)C2CCCC2)CCN1	.	0.8	0.4	i	0.67	0.6	-1.2
O=C(CCC(F)(F)F)N1CCC(CO)(CCc2ccccc2)CC1	.	-17	?	i	0.68	3.9	1.5
CCN(CC(=O)NC1CCS(=O)(=O)C1)S(=O)(=O)c1cccc(C(C)=O)c1 (stereo not given)	.	-1.1	1.8	.	0.71	5.4	0.3
CCOC(=O)C1=C(C)NC(SCC(N)=O)=C(C#N)C1c1ccccc1 (stereo not given)	6%	.	-0.9	.	0.67	-4.9	0.5
O=C(NCc1ccc2c(c1)OCO2)C1CCN(S(=O)(=O)c2cccc3nsnc23)CC1	-10%	.	5.4	.	0.7	-1.1	1.7
CC1(C)OC(=O)C(=C2CCCN2)C(=O)O1	63%	.	-2.5	.	0.75	-3.6	-1.3
Cc1cc(C(=O)N2CCCC(Nc3ccc(F)cc3)C2)n(C)n1 (stereo not given)	.	-7.2	3.2	i	0.71	0.3	-1.8
Cc1ccc(SCC(=O)N(C)CC(=O)Nc2cccc(F)c2)c(C)c1	11%	3.8	8.1	i	0.64	2.8	3.3

An excerpt from above, reduced to FGF22 binding and UCH37 inh.
Structure	FGF22 binding	UCH37 inh
CCN(CC(=O)NC1CCS(=O)(=O)C1)S(=O)(=O)c1cccc(C(C)=O)c1 (stereo not given)	.	5.4
CCOC(=O)C1=C(C)NC(SCC(N)=O)=C(C#N)C1c1ccccc1 (stereo not given)	.	-4.9
O=C(NCc1ccc2c(c1)OCO2)C1CCN(S(=O)(=O)c2cccc3nsnc23)CC1	.	-1.1
CC1(C)OC(=O)C(=C2CCCN2)C(=O)O1	.	-3.6
Cc1cc(C(=O)N2CCCC(Nc3ccc(F)cc3)C2)n(C)n1 (stereo not given)	i	0.3
Cc1ccc(SCC(=O)N(C)CC(=O)Nc2cccc(F)c2)c(C)c1	i	2.8

A portion of the library, so the mix of outcomes need not match the whole.
